# From PubChem
# Vaccinia inh: Vaccinia orthopox stage-specific inhibition; AID 1053133; 89,000 compounds, 0.01% hits; activity change (mCherry), % (concentration not given with the values); Vaccinia-infected cells, mCherry/Venus stage reporter fluorescence; hits give low values; some inactives read as strong as hits;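 active = mCherry past -33% and 40 or more points under the early reporter, replicates agreeing; inconclusive = past -33% without that gap or agreement; tested in A549 cells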;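 note: scaled between vehicle wells and reference inhibitor wells; 23 nL library stock went into each well; one replicate is shown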
# Vaccinia inh Venus: second read-out of Vaccinia inh, no call of its own (marks repeat the call); activity change (Venus), %; measured here: Venus reporter, other viral stage;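 negative = less Venus signal; first of two replicates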
# Active calls of the source: *; ? = inconclusive; nt = not tested or not shown; & = joins results of further samples.
SMILES,Vaccinia inh,Vaccinia inh Venus
C[C@@H]1CCCCO[C@@H](CN(C)C(=O)CCCN(C)C)[C@H](C)CN([C@@H](C)CO)C(=O)c2cc(NS(=O)(=O)c3ccccc3)ccc2O1,45,25
O=C(Cc1cccnc1)N[C@@H]1CC[C@@H](CCNS(=O)(=O)c2ccccc2Cl)O[C@H]1CO,5,1
C[C@@H]1CCCCO[C@@H](CN(C)Cc2ccccc2)[C@@H](C)CN([C@@H](C)CO)C(=O)c2cc(NS(=O)(=O)c3cccs3)ccc2O1,-25,-11
COc1ccc(S(=O)(=O)N(C)C[C@H]2OCCCC[C@H](C)Oc3ccc(NS(=O)(=O)c4cn(C)cn4)cc3C(=O)N([C@H](C)CO)C[C@H]2C)cc1,16,8
CO[C@@H]1CN(C)C(=O)c2cc(NS(=O)(=O)c3ccccc3)ccc2OC[C@@H](C)N(C(=O)NC(C)C)C[C@@H]1C,15,8
C[C@H]1CN([C@@H](C)CO)C(=O)c2cccc(NC(=O)C3CCCCC3)c2O[C@@H]1CN(C)Cc1ccccc1,?,nt
CO[C@H]1CN(C)C(=O)c2cc(NS(=O)(=O)c3ccccc3)ccc2OC[C@H](C)N(Cc2nccs2)C[C@@H]1C,0,-7
COCC(=O)Nc1ccc2c(c1)[C@@H]1C[C@H](CC(=O)OC)O[C@H](CO)[C@@H]1O2,2,1
Cc1noc(C)c1S(=O)(=O)Nc1ccc2c(c1)C(=O)N([C@H](C)CO)C[C@@H](C)[C@@H](CN(C)S(=O)(=O)c1cn(C)cn1)OCCCC[C@@H](C)O2,35,18
Cc1noc(C)c1S(=O)(=O)N(C)C[C@H]1OCCCC[C@H](C)Oc2ccc(NC(=O)Cc3ccccc3)cc2C(=O)N([C@@H](C)CO)C[C@@H]1C,?,nt
C[C@@H]1CCCCO[C@H](CN(C)C(=O)Cc2ccccc2)[C@@H](C)CN([C@@H](C)CO)C(=O)c2cc(NC(=O)Cc3ccccc3)ccc2O1,-27,-13
O=C(N[C@H]1C=C[C@@H](CC(=O)N2CCCCC2)O[C@@H]1CO)c1cccc(F)c1,0,7
C/C=C/c1ccccc1[C@H]1[C@@H](CO)N(C(=O)Nc2ccccc2F)[C@H]1C#N,6,2
COCC#Cc1ccc2c(c1)O[C@@H](CN(C)Cc1ccc(F)cc1)[C@H](C)CN([C@@H](C)CO)S2(=O)=O,?,nt
COCC(=O)N1CCCCN2[C@@H](CO)[C@H](c3ccc(-c4ccc(OC)cc4)cc3)[C@@H]2C1,18,2
Cc1ccc(S(=O)(=O)N(C)C[C@H]2Oc3c(NS(C)(=O)=O)cccc3C(=O)N([C@H](C)CO)C[C@@H]2C)cc1,12,6
C[C@@H]1CN([C@H](C)CO)C(=O)c2cc(NC(=O)Nc3ccc4c(c3)OCO4)ccc2O[C@@H](C)CCCCO[C@H]1CN(C)Cc1ccc(C(F)(F)F)cc1,-13,-14
COC(=O)[C@@H]1[C@@H](CO)[C@@H]2Cn3c(ccc(C4=CCCCC4)c3=O)[C@@H]2N1C(=O)C1CCCC1,14,5
N#C[C@@H]1[C@@H](c2ccc(C#CCC3CCCC3)cc2)[C@H](CO)N1C(=O)c1ccccn1,-32,-25
COc1ccc(-c2ccc([C@@H]3[C@@H](CO)N4C(=O)CN(Cc5ccccc5)C[C@@H]34)cc2)cc1,5,5
CCCN(C)C[C@H]1OCCCC[C@@H](C)Oc2ccc(NC(=O)C3CCCCC3)cc2C(=O)N([C@H](C)CO)C[C@@H]1C,4,1
C[C@@H]1CN([C@@H](C)CO)C(=O)c2cc(NS(=O)(=O)c3cn(C)cn3)ccc2O[C@H]1CN(C)S(C)(=O)=O,2,-1
COc1ccc(NC(=O)N(C)C[C@H]2OCCCC[C@H](C)Oc3ccc(NS(=O)(=O)c4cn(C)cn4)cc3C(=O)N([C@H](C)CO)C[C@@H]2C)cc1,18,10
COc1ccc(NC(=O)Nc2ccc3c(c2)C(=O)N([C@H](C)CO)C[C@@H](C)[C@H](CN(C)C(=O)Nc2c(C)noc2C)OCCCC[C@@H](C)O3)cc1,5,5
C[C@@H]1CCCCO[C@@H](CN(C)Cc2ccncc2)[C@@H](C)CN([C@H](C)CO)C(=O)c2cc(NC(=O)Cc3ccccc3)ccc2O1,8,1
C[C@@H]1CN([C@@H](C)CO)C(=O)c2cccc(NS(=O)(=O)c3cccs3)c2O[C@@H]1CN(C)C,16,8
C[C@H]1CN([C@@H](C)CO)S(=O)(=O)c2ccc(C#CC(C)(C)O)cc2O[C@@H]1CN(C)Cc1ccncc1,-13,-15
Cc1cc(C(=O)Nc2cccc3c2O[C@H](CN(C)Cc2ccc(C(=O)O)cc2)[C@H](C)CN([C@H](C)CO)C3=O)n(C)n1,8,0
O=C(NC1Cc2ccccc2C1)[C@H]1N[C@H]2c3cccc(=O)n3C[C@H]2[C@@H]1CO,5,-2
COCC(=O)N(C)C[C@@H]1Oc2ncc(C#Cc3ccc(OC)cc3)cc2C(=O)N([C@@H](C)CO)C[C@H]1C,4,3

# Structural class, the entries above with a cyano group
SMILES,Vaccinia inh,Vaccinia inh Venus
C/C=C/c1ccccc1[C@H]1[C@@H](CO)N(C(=O)Nc2ccccc2F)[C@H]1C#N,6,2
N#C[C@@H]1[C@@H](c2ccc(C#CCC3CCCC3)cc2)[C@H](CO)N1C(=O)c1ccccn1,-32,-25

# (listing goes on)
SMILES,Vaccinia inh,Vaccinia inh Venus
N#C[C@@H]1[C@@H](c2ccc(-c3ccccc3F)cc2)[C@@H](CO)N1C(=O)Cc1ccccc1,-7,-11
COCC(=O)N(C)C[C@@H]1Oc2ncc(Br)cc2C(=O)N([C@@H](C)CO)C[C@H]1C,16&12,5&9
N[C@@H]1CC[C@@H](CCn2cc(-c3ccccn3)nn2)O[C@H]1CO,-4,-4
COc1ccc(NC(=O)N(C)C[C@H]2Oc3ccc(N(C)C)cc3C(=O)N([C@H](C)CO)C[C@H]2C)cc1,12,2
C[C@H]1CN([C@@H](C)CO)C(=O)c2cccc(NS(=O)(=O)c3ccc(Cl)cc3)c2O[C@H]1CN(C)CC1CCCCC1,-10,-5
C/C=C/c1ccc([C@@H]2[C@H](CO)N(C(=O)CN(C)C)C23CN(C(=O)C2CCC2)C3)cc1,-7,-3
O=C(NCCN1CCCCC1)[C@@H]1[C@@H](CO)[C@@H]2Cn3c(cccc3=O)[C@H]1N2C(=O)C1CCCCC1,22,6
C[C@H]1CN([C@@H](C)CO)C(=O)c2cc(NS(=O)(=O)c3ccccc3)ccc2O[C@H]1CN(C)S(=O)(=O)c1cn(C)cn1,30,24
COc1cccc(-c2ccc3c(c2)[C@H]2[C@H](CCN2C(=O)c2ccccn2)[C@@H](CO)N3)c1,4,-3
C[C@@H]1CCCCO[C@@H](CN(C)C(=O)Nc2ccc(C(F)(F)F)cc2)[C@H](C)CN([C@H](C)CO)C(=O)c2cc(N(C)C)ccc2O1,-7,1
C[C@H](CO)N1C[C@H](C)[C@@H](CN(C)Cc2ccc(Cl)c(Cl)c2)Oc2ccc(NC(=O)CCCN(C)C)cc2C1=O,-14,-10
Cc1ccc(S(=O)(=O)N2C[C@@H](O)COC[C@H]3O[C@@H](CC(=O)N[C@H]4CCN(Cc5ccccc5)C4)CC[C@@H]32)cc1,-24,-19
COCC#Cc1cnc2c(c1)C(=O)N([C@H](C)CO)C[C@@H](C)[C@@H](CN(C)Cc1ccccc1F)O2,12,3
C[C@@H]1CN([C@H](C)CO)C(=O)Cc2cc(NS(=O)(=O)c3ccccc3)ccc2O[C@H]1CN(C)Cc1ccc(Cl)c(Cl)c1,?,nt
Cc1ccc(S(=O)(=O)N[C@H]2CC[C@H](CCn3cc(-c4cccnc4)nn3)O[C@@H]2CO)cc1,-6,-2
CCS(=O)(=O)NC[C@H]1[C@@H](c2ccccc2)[C@@H](CO)N1CC1CCCC1,5,11
C[C@H]1CN([C@@H](C)CO)C(=O)CCCn2cc(nn2)CO[C@@H]1CN(C)C(=O)c1ccc2ccn(C)c2c1,3,-2
Cc1noc(C)c1NC(=O)N(C)C[C@@H]1Oc2ccc(NC(=O)Nc3ccc4c(c3)OCO4)cc2CC(=O)N([C@@H](C)CO)C[C@H]1C,13,11
Cc1ccccc1-c1cnc2c(c1)C(=O)N([C@@H](C)CO)C[C@@H](C)[C@@H](CN(C)Cc1ccncc1)O2,5,5
O=C(Nc1ccccc1)N[C@@H]1CC[C@H](CCNS(=O)(=O)c2ccccc2F)O[C@@H]1CO,0,1
O=C(Cc1cccnc1)N1CCCCN2[C@H](CO)[C@H](c3ccc(C#CC4CC4)cc3)[C@H]2C1,-32,-21
Cc1ccc(S(=O)(=O)N(C)C[C@@H]2Oc3cc(Br)ccc3S(=O)(=O)N([C@H](C)CO)C[C@H]2C)cc1,?,nt
COc1ccccc1C(=O)N1C[C@H]2[C@@H](c3ccccc31)[C@@H](CO)N2C(=O)Cc1cccnc1,10,12
COCC(=O)NC[C@@H]1[C@H](c2ccccc2)[C@H](CO)N1C(C)=O,15,12
CN(C)C(=O)c1ccc(-c2ccc3c(c2)[C@@H]2[C@@H](CCN2C(=O)C2CC2)[C@H](CO)N3C)cc1,2,-10
CC=Cc1ccc2n(c1=O)C[C@H]1[C@H](CO)[C@@H](C(=O)NCC3CC3)[C@@H]2N1C(=O)Nc1cc(F)ccc1F (mixture of isomers),-1,5
COc1cccc(-c2ccc3n(c2=O)C[C@H]2[C@H](CO)[C@@H](C(=O)NC4CCCC4)[C@@H]3N2C)c1,14,8
C[C@H](CO)N1C[C@H](C)[C@@H](CN(C)C(=O)Nc2ccccc2)Oc2c(NC(=O)Nc3cccc4ccccc34)cccc2C1=O,-9,2
CNC[C@@H]1OCCCC[C@@H](C)Oc2ccc(NC(=O)NC3CCCCC3)cc2C(=O)N([C@@H](C)CO)C[C@H]1C,13,4
Cc1ccccc1-c1ccc2c(c1)O[C@H](CN(C)CC1CC1)[C@H](C)CN([C@@H](C)CO)S2(=O)=O,?,nt

# Entries of single compounds from above. Order of screens: Vaccinia inh	Vaccinia inh Venus
# Results for COc1cccc(-c2ccc3n(c2=O)C[C@H]2[C@H](CO)[C@@H](C(=O)NC4CCCC4)[C@@H]3N2C)c1 → 14	8
# Results for Cc1ccc(S(=O)(=O)N(C)C[C@@H]2Oc3cc(Br)ccc3S(=O)(=O)N([C@H](C)CO)C[C@H]2C)cc1 → ?	nt
# Results for CNC[C@@H]1OCCCC[C@@H](C)Oc2ccc(NC(=O)NC3CCCCC3)cc2C(=O)N([C@@H](C)CO)C[C@H]1C → 13	4

# Carrying on.
SMILES,Vaccinia inh,Vaccinia inh Venus
CCNC(=O)C[C@@H]1CC[C@H]2[C@@H](COC[C@@H](O)CN2C(=O)c2cccnc2)O1,36,23
C[C@@H]1CN([C@H](C)CO)C(=O)Cc2cc(NC(=O)Cn3cnnn3)ccc2O[C@H]1CN(C)Cc1ccccc1,14,8
Cc1noc(C)c1NC(=O)N(C)C[C@@H]1Oc2c(NC(=O)NC3CCCCC3)cccc2C(=O)N([C@H](C)CO)C[C@@H]1C,16,3
C[C@H]1CN([C@@H](C)CO)C(=O)CCCn2cc(nn2)CO[C@@H]1CN(C)S(=O)(=O)c1ccccc1C#N,6,8
CN(C)C(=O)c1ccc(-c2ccc([C@H]3[C@@H](C#N)N(C(=O)C4CCC4)[C@H]3CO)cc2)cc1,?,nt
O=C(C[C@@H]1C[C@H]2c3cc(NC(=O)C4CCOCC4)ccc3O[C@H]2[C@@H](CO)O1)NC1CCCCC1,24,12
CC(C)CC#Cc1ccc2c(c1)O[C@H](CN(C)C(=O)C1CCOCC1)[C@H](C)CN([C@H](C)CO)S2(=O)=O,-25,-15
CCCc1cn(CC[C@H]2CC[C@H](NC(=O)Nc3ccccc3F)[C@@H](CO)O2)nn1,-6,-5
CCS(=O)(=O)Nc1ccc2c(c1)C(=O)N(C)[C@H]1CC[C@H](CC(=O)N3CCOCC3)O[C@H]1CO2,7,1
C[C@@H]1CN([C@@H](C)CO)C(=O)CCCn2nncc2CO[C@@H]1CN(C)C(=O)CCC(F)(F)F,3&4,-2&4

# Given tab-delimited: part of the list above
Structure	Vaccinia inh	Vaccinia inh Venus
CC(C)CC#Cc1ccc2c(c1)O[C@H](CN(C)C(=O)C1CCOCC1)[C@H](C)CN([C@H](C)CO)S2(=O)=O	-25	-15
CCCc1cn(CC[C@H]2CC[C@H](NC(=O)Nc3ccccc3F)[C@@H](CO)O2)nn1	-6	-5

# Additional results follow:
SMILES,Vaccinia inh,Vaccinia inh Venus
C[C@H](CO)N1C[C@H](C)[C@@H](CN(C)Cc2ccc(Cl)c(Cl)c2)Oc2ccc(NC(=O)Nc3ccc(F)cc3)cc2CC1=O,?,nt
COc1ccccc1CNC(=O)C[C@@H]1C[C@H]2c3cc(NC(=O)Nc4ccc(C(F)(F)F)cc4)ccc3O[C@H]2[C@H](CO)O1,-5,-2
CC(C)NC(=O)N(C)C[C@H]1OCCCC[C@@H](C)Oc2ccc(NS(=O)(=O)c3cn(C)cn3)cc2C(=O)N([C@@H](C)CO)C[C@H]1C,9,2
COc1ccccc1S(=O)(=O)N1CC[C@@H]2[C@H]1c1cc(-c3ccccc3)ccc1N(C)[C@H]2CO,4,-6
COCC#Cc1ccc([C@H]2[C@@H](CO)N3C(=O)CN(C(=O)C4CCOCC4)C[C@H]23)cc1,-1,-5

# Only part of the results is shown, so the mix of outcomes need not match the whole.
